# Screening data as filed in PubChem BioAssay.
# VDR inhibitor: vitamin D3 receptor (human) inhibition; VDR-SRC2-3 peptide fluorescence polarization, 2 h; 0.93% of 400,000 active; Potency, µM, without a hit: max response, negative = inhibition, hits mostly inhibitors; AID 504847; active means well fitted inhibition curve with a large enough effect; inconclusive means small, poorly fitted or top-dose-only effect, or another doubt; inactive means no such curve, though single readings can be large or run the other way; further: series mostly up to about 120 µM
# Target sequence (P11473 whole entry, looked up): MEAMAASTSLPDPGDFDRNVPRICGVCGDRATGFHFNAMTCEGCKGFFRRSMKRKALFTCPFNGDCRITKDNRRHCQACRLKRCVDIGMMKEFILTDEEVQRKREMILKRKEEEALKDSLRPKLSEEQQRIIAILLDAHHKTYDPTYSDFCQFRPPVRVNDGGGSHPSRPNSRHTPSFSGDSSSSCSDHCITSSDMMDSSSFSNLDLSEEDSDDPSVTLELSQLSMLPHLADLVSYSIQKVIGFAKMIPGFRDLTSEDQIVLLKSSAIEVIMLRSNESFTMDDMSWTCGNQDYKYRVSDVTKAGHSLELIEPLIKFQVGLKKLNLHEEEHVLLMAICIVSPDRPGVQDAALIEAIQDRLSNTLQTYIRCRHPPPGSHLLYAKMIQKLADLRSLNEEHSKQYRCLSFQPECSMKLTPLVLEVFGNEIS
#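 VDR–SRC2-3 interaction, FP format. Cmpds 23 nl via pintool, brief spin, 2 h ambient incubation.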
# Active calls of the source: *; ? = inconclusive; & = joins results of further samples; [ ] = another dose, or the depositor's remark. On the % scale 0 is the no-effect control and ±100 the full control effect; potency means the concentration at half of the fitted maximal effect. The list is partial; the hit share may differ from the screen's.
SMILES,VDR inhibitor
CC1CCC(C(C)C)C(OC(=O)c2ccccc2N)C1 (stereo not given),3%
CC(O)(CS(=O)(=O)c1cccc(C(F)(F)F)c1)C(=O)Nc1ccc(C(F)(F)F)cc1 (stereo not given),-7%
O=[N+]([O-])c1ccc(F)c([N+](=O)[O-])c1,-2%
COC(=O)C1=C(c2ccc(OC(F)(F)F)cc2)C[C@@H]2CC[C@H]1N2C(=O)N1CCCCC1,4%
CCN(CCO)c1ccc(N=Cc2c(O)n(C)c(=S)[nH]c2=O)cc1,-9%
c1ccc(N2CC3(CCNCC3)C2)cc1,?
CC(C)C[C@H](NC(=O)[C@H](Cc1ccccc1)NC(=O)CNC(=O)[C@H](CS)N(C(=O)[C@@H](N)Cc1ccc(O)cc1)C(C)(C)C)C(=O)N([C@H](C(=O)O)[C@H](C)O)C(C)(C)C,12%
COCCCn1c(N)c(C(=O)NCCC(C)C)c2nc3ccccc3nc21,?
N#CC(C#N)=NNc1ccc(S(N)(=O)=O)cc1,?
Nc1ccc2ccc3cccc[n+]3c2c1,-13%
NC(=O)c1cn(C2OC(CO)C(O)C2O)c2ncnc(N)c12 (stereo not given),0%&-17%
COc1cc(OC)c2c(c1)OC(c1ccc(OC)c(OC)c1)C(O)C2 (stereo not given),1%
CC(C)Sc1nnc([C@@H](N)Cc2ccccc2)o1,-11%
CCC(C)(C)O,3%
CCN(CC(=O)Nc1ccc(NC(C)=O)cc1)C(=O)CSC(c1ccccc1)c1ccccc1,8%
COC(=O)C1=C(c2ccc(C(C)=O)cc2)C[C@@H]2CC[C@H]1N2C(=O)NCc1ccc(C(F)(F)F)cc1,-7%
c1csc(C2(N3CCCCC3)CCCCC2)c1,-1%
COc1ccc(O)c(C(C)(C)C)c1,2%&-9%
COC(=O)C12CC3=C[C@H](CC3=O)Cc3ccccc3[C@@H]1CNC2=O (stereo not given in full),3%&5%
O=[N+]([O-])c1ccc2c(c1)Cc1cc(O)ccc1-2,-8%

# Reprinted from the listing for reference:
SMILES,VDR inhibitor
COc1ccc(O)c(C(C)(C)C)c1,2%&-9%
COC(=O)C12CC3=C[C@H](CC3=O)Cc3ccccc3[C@@H]1CNC2=O (stereo not given in full),3%&5%

# Additional compounds
SMILES,VDR inhibitor
O=C(Nc1ccc2nc(-c3cccs3)c(-c3cccs3)nc2c1)N1CCCCC1,32%[activator]
Cn1cccc1/C=C1/C(=O)NC(=O)N(Cc2ccc(F)cc2)C1=O,-15%
Clc1ccc(C(c2ccccc2)c2ncc[nH]2)cc1 (stereo not given),-9%
CCOC(=O)CC1=C(C(=O)OCC)C2(C(=O)Nc3ccccc32)C(C#N)=C(N)O1 (stereo not given),-2%
C=C1C2CCC3[C@@](CC[C@@H]4C(C(=O)O)CC(OC5OC(CO)C(OS(=O)(=O)O)C(OS(=O)(=O)O)C5OC(=O)CC(C)C)C[C@]34C)(C2)C1O (stereo not given in full),0%
COC(=O)C1=C(c2ccc(F)cc2OCc2ccccc2)C[C@@H]2CC[C@H]1N2C(=O)N1CCOCC1,6%
O=C(COC(=O)Cc1ccccc1)Nc1nnc(-c2ccccc2)o1,-9%
COc1ccc(-n2c(O)c(/C=C3\C=Nc4ccc(Br)cc43)c(=O)[nH]c2=O)c(OC)c1,50µM*
CCSP1(=S)N=C(N2CCOCC2)C(C#N)=C2CCCN21 (stereo not given),14%
OC(CNC1CCCCC1)c1ccccc1 (stereo not given),3%
C/C(=N\N1CCN(C)CC1)c1c(O)n(Cc2ccccc2)c(=O)[nH]c1=O,1%
C=CCC1(C(C)CCC)C(=O)N=C(S)NC1=O (stereo not given),4%
CCOC(=O)C1CCN(/C=C2/C(=O)NC(=O)N(c3cccc(C)c3C)C2=O)CC1,2%
C=C(C)[C@H]1[C@H]2OC(=O)[C@@H]1[C@]1(O)C[C@H]3O[C@]34C(=O)O[C@H]2[C@@]14C,20%
Cc1cc(N(CCCl)CCCl)ccc1C=NNC(=O)c1cccnc1,5%
CCCCC(=O)N/N=C/c1c(O)n(-c2ccccc2)c(=O)[nH]c1=O,-10%
CCOP(=O)(OCC)C(NC(=O)c1ccccc1)=C(Cl)Cl,24%
COc1ccc(NC(=O)N2CCC3(CC2)OCCO3)cc1,-22%
COc1ccccc1OCCCn1cc(C(C)=O)c2ccccc21,1%
CN(C)C(=O)Oc1ccc(OCc2nc3ccccc3[nH]2)cc1,-9%
O=C1NC(=O)N(c2ccc(Cl)cc2)C(=O)/C1=C\c1ccc(Sc2nc3ccccc3[nH]2)o1,-23%
CC(=O)Nc1cc(C(=O)N2CCC3(CC2)OCCO3)ccc1S(=O)(=O)c1ccc(C)cc1,16%
CCN1C[C@@]2(COC)CCC(OC)[C@]34C5C[C@]6(O)[C@@H](OC)C[C@](OC(C)=O)(C([C@H](OC)C23)[C@H]14)C5[C@H]6OC(=O)c1ccc(OC)cc1 (stereo not given in full),11%
CC1(C)OC1COc1c2occc2cc2ccc(=O)oc12 (stereo not given),-2%&-11%
c1cnc2c(c1)ccc1ncccc12,-2%
Cc1[nH]c2ccccc2c1CN(C)C,5%
CC(C)[C@@]1(NC(=O)[C@@H]2C[C@H]3c4cccc5[nH]cc(c45)C[C@@H]3N(C)C2)O[C@]2(O)[C@H]3CCCN3C(=O)CN2C1=O,-16%
COC(=O)C1=C(c2cccc(C#N)c2)C[C@@H]2CC[C@H]1N2C(=O)NCc1cc(C)oc1C(F)(F)F,-1%
Cc1ccccc1NC(=O)COC(=O)c1cc(C)n(C2CC2)c1C,-17%
Cc1ccc(/C=C2\C(=O)NC(=S)N(c3ccc(F)cc3)C2=O)s1,35µM*
CC1(C)COC(Nc2ccc(Cl)cc2)=N1,19%
Cc1cccc(CN2CCN(CC(=O)N3CCC4(CC3)OCCO4)C2=O)c1,14%
Clc1ccccc1CNC1CN2CCC1CC2 (stereo not given),?
COc1ccc(-n2c(Cc3ccccc3)nc3ccccc3c2=O)cc1,-4%
CCCCCCn1c(O)c(C=Nc2ccccc2N2CCOCC2)c(=O)[nH]c1=S,-19%
O=C(O)c1cc2ccccc2oc1=O,4%
Cc1nc2cc([N+](=O)[O-])ccc2c(=O)n1-c1ccccc1[N+](=O)[O-],2%
CSc1ncc(CN2CCCC(C(=O)c3sccc3C)C2)cn1 (stereo not given),-5%
CCN(CC)S(=O)(=O)c1cc(NC(=O)C(C)N2CC=C(c3ccccc3)CC2)ccc1C (stereo not given),-16%
CC(=O)Nc1cc([As](=O)(O)O)ccc1O,3%&-2%
CN1CCN(c2ccc([N+](=O)[O-])c(Sc3nncn3C)c2)CC1,-21%
COC(=O)[C@@H]1C[C@@]1(C)[C@@H](NP(=O)(c1ccccc1)c1ccccc1)c1ccccc1,-8%
COCCCn1c(N)c(C(=O)OCCOC)c2nc3ccccc3nc21,-3%
O=C(NC1CN2CCC1CC2)c1ccc(-c2ccc([N+](=O)[O-])cc2)o1 (stereo not given),-20%
O=[N+]([O-])c1ccc(C2[C@H]3C(c4ccccc4)=NC4(CCCCC4)N23)cc1 (stereo not given in full),32%[activator]
CCS(=O)(=O)NCc1nnc2n1-c1ccc(Br)cc1C(c1ccccc1Cl)=NC2,-8%
CCC1OC(=O)CC(O)C(C)[C@@H](O[C@@H]2OC(C)[C@H](O[C@@H]3C[C@@](C)(O)C(O)C(C)O3)C(N(C)C)C2O)[C@H](CC=O)CC(C)C(=O)/C=C/C(C)=C/[C@@H]1COC1OC(C)C(O)C(OC)[C@@H]1OC (stereo not given in full),-3%
NC1CCc2cc(O)c(O)cc2C1 (stereo not given),-7%&-5%
O=c1c2ccccc2nc(Cc2ccccc2)n1-c1cccc(O)c1,-16%
CCCCn1c(N)c(C(=O)NCc2cccs2)c2nc3ccccc3nc21,89µM*
Clc1ccc2c(c1)C(c1ccccc1Cl)=NCc1nnc(N3CCN(CCOc4ccccc4)CC3)n1-2,-13%
O=c1[nH]c(=S)n(-c2ccccc2)c(O)c1/C=N/N1CCOCC1,-19%
CC(C)CCNC(=O)c1cc(C(=O)c2cc(Br)ccc2O)cn(CCC(C)C)c1=O,4%
CCCCCCC(=O)N/N=C/c1c(O)n(C(C)CC)c(=S)[nH]c1=O (stereo not given),-6%
CC(Cc1ccccc1)N(C)CC1C(=O)C2CCC1C2 (stereo not given),6%
CCOc1cc2c(cc1OCC)-n1cccc1C(c1ccc(OC(F)F)cc1)NC2 (stereo not given),16%
CC(C)N1CCN(Cc2ccccc2C(F)(F)F)CC1CCO (stereo not given),-9%
COc1cc(OC)c(OC)cc1C=O,-8%&11%
O=C(CCc1nnc2ccc(NCc3ccccc3Cl)nn12)N1CCC2(CC1)OCCO2,-4%
CCOC(=O)c1nsnc1NCCCl,-12%

# New compounds follow
SMILES,VDR inhibitor
Nc1ccnn1C1CCNCC1,-6%
C[N+](C)(C)CCOC(=O)CBr,5%&1%&-29%
COc1ccc(N=Cc2c(O)n(C)c(=O)[nH]c2=O)cc1,-19%
O=c1c2ccccc2nc(Cc2ccccc2)n1-c1ccccc1,-5%
CCN1C[C@]2(COC)C(O)C[C@H](OC)[C@@]34C5C[C@]6(O)C(OC)C(O)[C@](OC(C)=O)(C5C6OC(=O)c5ccccc5)C(C(OC)C23)C14 (stereo not given in full),5%
Cc1ccc(-n2c(C)nc3ccccc3c2=O)c(C)c1,8%
CCC(C)C1O[C@]2(C=CC1C)CC1CC(C/C=C(\C)[C@H](OC3CC(OC)C(O[C@H]4CC(OC)[C@@H](O)C(C)O4)C(C)O3)[C@@H](C)/C=C/C=C3\COC4C(O)C(C)=C[C@H](C(=O)O1)[C@@]34O)O2 (stereo not given in full),-2%
CC(=O)C1CCC2C3CCC4CC(O)CCC4(C)C3C(O)CC12C (stereo not given),-12%
C[C@@H](Cc1ccc(OCC(=O)O)cc1)NC[C@H](O)c1cccc(Cl)c1,12%
O=c1[nH]c(=O)n(CCc2ccccc2)c(O)c1C=NC1CC1,10%
COc1ccc(C(=O)C2CCCN(Cc3ccc(F)cc3F)C2)cc1F (stereo not given),-20%
C=CCc1cc(C=C2C(=O)N(C)C(=O)N(C)C2=O)cc(OCC)c1OCc1ccccc1,?
NCCCC[C@H](NC(=O)[C@H](Cc1ccccc1)NC(=O)[C@H](CCCN=C(N)N)NC(=O)[C@@H](N)Cc1ccc(O)cc1)C(N)=O,11%
O=C1NC(=O)C(CCc2ccncc2)(CCc2ccccn2)C(=O)N1c1ccc(Br)cc1 (stereo not given),19%
COc1ccc(NS(=O)(=O)c2ccc(OCC(=O)N3CCN(C)CC3)cc2)cc1Cl,-1%
N#Cc1cccc(NC(=O)CSc2nc3c(cc2C#N)N2CCC3CC2)c1,-17%

# Among those listed so far, 14 have an NH in an aromatic ring.
SMILES,VDR inhibitor
CCN(CCO)c1ccc(N=Cc2c(O)n(C)c(=S)[nH]c2=O)cc1,-9%
Clc1ccc(C(c2ccccc2)c2ncc[nH]2)cc1 (stereo not given),-9%
COc1ccc(-n2c(O)c(/C=C3\C=Nc4ccc(Br)cc43)c(=O)[nH]c2=O)c(OC)c1,50µM*
C/C(=N\N1CCN(C)CC1)c1c(O)n(Cc2ccccc2)c(=O)[nH]c1=O,1%
CCCCC(=O)N/N=C/c1c(O)n(-c2ccccc2)c(=O)[nH]c1=O,-10%
CN(C)C(=O)Oc1ccc(OCc2nc3ccccc3[nH]2)cc1,-9%
O=C1NC(=O)N(c2ccc(Cl)cc2)C(=O)/C1=C\c1ccc(Sc2nc3ccccc3[nH]2)o1,-23%
Cc1[nH]c2ccccc2c1CN(C)C,5%
CC(C)[C@@]1(NC(=O)[C@@H]2C[C@H]3c4cccc5[nH]cc(c45)C[C@@H]3N(C)C2)O[C@]2(O)[C@H]3CCCN3C(=O)CN2C1=O,-16%
CCCCCCn1c(O)c(C=Nc2ccccc2N2CCOCC2)c(=O)[nH]c1=S,-19%
O=c1[nH]c(=S)n(-c2ccccc2)c(O)c1/C=N/N1CCOCC1,-19%
CCCCCCC(=O)N/N=C/c1c(O)n(C(C)CC)c(=S)[nH]c1=O (stereo not given),-6%
COc1ccc(N=Cc2c(O)n(C)c(=O)[nH]c2=O)cc1,-19%
O=c1[nH]c(=O)n(CCc2ccccc2)c(O)c1C=NC1CC1,10%
